# Assay outcomes from PubChem.
# NPYLR7 agonist = agonists of mosquito NPYLR7 receptor, primary screen, cell-based, Aedes aegypti, calcium fluorescence, mosquito biting behavior; HEK293T NPYLR7/Galpha15, GCaMP6s calcium fluorescence; activation, % at 10 µM; 270,000 tested, 0.15% active; AID 1259423, 2018; in the data active = activation above about 40%;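 note: 0% = vehicle and 100% = reference agonist at the receptor; some compounds past the cut are filed as inactive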
# NPYLR7 agonist max-min = second read-out of NPYLR7 agonist, no call of its own (marks repeat the call); activation, %; measured here: Max-Min RFU normalised activation; some inactives read as strong as hits;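 span of the calcium signal over five minutes; 0% = vehicle and 100% = native peptide agonist; compound fluorescence can raise it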
# Numbers without * were called inactive; & = joins results of further samples. An excerpt (hit frequency here may not be typical).
SMILES,NPYLR7 agonist,NPYLR7 agonist max-min
COc1cc(C(=O)Oc2coc(CSc3nc(C)cc(C)n3)cc2=O)cc(OC)c1OC,-14,-10
O=C(c1cccc(C(F)(F)F)c1)C1CCCN(C(=O)Cn2nc3ccccc3n2)C1 (centres undefined),-2,-10
C=CCCC(=O)N1CCc2ccccc2C1c1ccccc1Cl (centres undefined),-4,5
O=C(COc1ccc(Cl)cc1C(=O)Nc1ccccc1)NCC1CCCO1 (centres undefined),-3,-4
CN1CCC(CNC(=O)c2ccccc2Oc2ccccc2)CC1,-1,-7
Cc1ccc(-n2c(CNC(=O)C(c3ccccc3)c3ccccc3)nnc2SCc2ccccc2C)cc1,10,19
COCCCN(CC(=O)N(CCc1c[nH]c2ccccc12)Cc1ccccc1)S(=O)(=O)c1ccc(C(C)(C)C)cc1,35,33
NCCCC(N)(C(=O)O)C(F)F (centres undefined),-1,-25
COC(=O)C1(C)CC2(C)CC(C)(C1)C(=O)N(C)C2=O (centres undefined),0,5
COc1ccc(-c2nc(CSc3cccc(C(F)(F)F)c3)cs2)cc1OC,3,1
Cc1nc2c(SCc3ccccn3)nnc(-c3ccccc3)c2s1,1,-2
Cc1ccc(C2=Nc3nnnn3C(c3cccc(C)c3)C2)cc1 (centres undefined),10,4
CN(Cc1cccnc1)C(=O)CC1C(=O)NCCN1CCCc1ccccc1 (centres undefined),2,-1
COc1ccc(CN2CCN(C)C[C@@H]2c2ccccc2)c(OC)c1OC,9,5
CCC(C(=O)N1CCc2ccccc2C1c1ccccc1Cl)c1ccccc1 (centres undefined),20,15
Nc1nc(SCC(=O)NCc2ccc(F)cc2)[nH]c(=O)c1NC(=O)c1ccc(F)c(F)c1,3,4
Cc1ccc(N2CCN(c3ccc(S(=O)(=O)C(C)C)nn3)CC2)c(C)c1,0,0
Cc1cccc(-c2nc(C(C)C)no2)c1N,2,-3
CCn1nnnc1NCc1cc(OC)c(OC)c(OC)c1,0,-1
Cc1cccc2oc(-c3ccc(Cl)cc3OCC(=O)N3CCOCC3)nc12,2,13
CCc1ccc(-c2nccn2-c2cccc(NC(C)=O)c2)nc1,-3,-7
CCc1nc2c(OCc3ccc(C#N)cc3)cccn2c1N(C)C(=O)c1ccco1,7,-4
CC(C)NC(=O)[C@@H]1C[C@@H](N)CN1Cc1cc2ccccc2[nH]1,-4,4
COCC(C)N=C1NN=C(c2ccc(O)cc2O)CS1 (centres undefined),-5,-7
CC(C)=CCN1CCc2ccccc2N(CC(O)C(F)(F)F)CCC1=O (centres undefined),-3,12

# Shown bar-delimited: part of the list above.
Structure | NPYLR7 agonist | NPYLR7 agonist max-min
O=C(c1cccc(C(F)(F)F)c1)C1CCCN(C(=O)Cn2nc3ccccc3n2)C1 (centres undefined) | -2 | -10
C=CCCC(=O)N1CCc2ccccc2C1c1ccccc1Cl (centres undefined) | -4 | 5
O=C(COc1ccc(Cl)cc1C(=O)Nc1ccccc1)NCC1CCCO1 (centres undefined) | -3 | -4

# The listing continues:
SMILES,NPYLR7 agonist,NPYLR7 agonist max-min
Cc1ccn2c(=O)c(C(=O)NCCN(C)C)c(O)nc2c1,-1,11
C=CCSc1nc2c(c(=O)[nH]c(=O)n2C)n1CC(=C)C,-6,17
CN(C)S(=O)(=O)c1ccc2nnn(OCC(=O)NC3CCCCC3)c2c1,3,1
CC(C)(C)NC(=O)N(Cc1ccc(OCc2nc(CO)cs2)cc1)C1CC1,-3,-2
O=c1[nH]nc(C2CCCN(C/C=C/c3ccco3)C2)n1-c1ccccc1 (centres undefined),2,-1
Cc1cc2c(cc1-c1c(-c3ccccc3)ncn1Cc1cccnc1)OCO2,3,-2
C/C=C/C(=O)NCCC(=O)N1CCC(C(=O)NCc2cccc(OC)c2)CC1,18,17
O=C(CN1C(=O)c2cccc([N+](=O)[O-])c2C1=O)Nc1ccc(Cl)c(Cl)c1,-4,-10
COc1ccc(C(=O)C2CCCN(c3nccc(N)n3)C2)cc1OC (centres undefined),1,-10
CCc1c(C)nc(-n2nc(C)cc2C)n(CC(=O)Nc2ccc3c(c2)OCCO3)c1=O,3,0
CNC(=O)[C@@H]1C[C@H](N)CN1C(=O)c1cc2ccc(OC)cc2n1C,-7,-8
CN(C)C(=O)c1nn(Cc2ccccc2)c2c1CN(C(=O)CC1=CCCCC1)CC2,19,6
CC(=O)C(Sc1nn(C)c(=S)s1)C(=O)Nc1ccccc1 (centres undefined),-6,-10
CC(=O)Nc1cccc(NC(=O)CSc2cn(CC(=O)N(C(C)C)C(C)C)c3ccccc23)c1,-3,-7
Cc1nc(N/N=C\c2ccccc2O)c2c3c(sc2n1)CCCC3,-10,-12
Cc1cc(N2CCOCC2)nc(SCc2ccc(C(=O)O)o2)n1,12,17
CC(=O)c1ccc(N=Cc2nc(-c3ccc(C)cc3)oc2O)cc1,-4,-10
CCOC(=O)C1(Cc2cccc(OC)c2)CCN(Cc2cccn2-c2nccs2)CC1,10,14
Cc1nc(C2CN(C(=O)CCCc3ccccn3)CCO2)n[nH]1 (centres undefined),-2,-3
CCCC(=O)Nc1c(C(=O)OCC)[nH]c2ccccc12,1,13
COc1ccc(C(=O)N2CCN(c3cccc(F)c3C#N)CC2)c(O)c1,19&5,14&-1
CCOC(=O)c1oc2ccccc2c1NC(=O)C1c2ccccc2Oc2ccccc21,12,7
CCOC(=O)c1cc(-c2ccccc2C)n(-c2ccc(C(=O)NCCC3=CCCCC3)cc2)n1,3,0
CNc1ncccc1CN(Cc1ccccc1)Cc1nccs1,-6,-8
O=C1CSC(=S)N1CCS(=O)(=O)O,13,21
# The list continues.
SMILES,NPYLR7 agonist,NPYLR7 agonist max-min
O=C(NCc1cccnc1)c1cnn(-c2cccc(F)c2)c1-c1ccccc1,6,17
O=C1NCCNC12CCN(S(=O)(=O)c1cc(F)cc(F)c1)CC2,6,3
Cc1ccc(C#N)cc1NC(=O)N(C)Cc1cnn(C)c1,9,4
C=CCn1c(SCC(=O)Nc2cccc(O)c2)nc2sc(C)cc2c1=O,3,1
CCOc1ccccc1N1CCN(S(=O)(=O)c2ccc(F)cc2)C(C)C1=O (centres undefined),15,17
CSc1ccc(COc2coc(CN3CCCN(C(=O)c4ccccc4OC(F)(F)F)CC3)cc2=O)cc1,20,18
COc1ccccc1CNS(=O)(=O)c1ccc(F)c(C(=O)Nc2ccc(Cl)cc2F)c1,-8,-11
CCOc1ncccc1-c1ncnc2scc(C)c12,-1,-1
O=[n+]1cc(C2=CC=CCC2)n([O-])c2c1CCCCC2,0,-5
Cc1cc([N+](=O)[O-])cc2c(N=Nc3ccc([N+](=O)[O-])cc3[N+](=O)[O-])c(O)n(C)c12,0,-2
COc1ccc(OCCCCOc2ccc(Br)cc2)cc1,-7,1
CCc1cc(Oc2ccc(C)cc2OC)nc(SCc2ccc(F)c(F)c2)n1,4,9
COc1cccc(Cc2nsc(N(CCC(=O)O)Cc3ccco3)n2)c1,-10,-20
CNS(=O)(=O)c1ccc(CN2CCCN(c3ccccc3)CC2)cc1,4,2
C=c1cc(C)n(CC(=O)Nc2ccsc2C(=O)OC)c(=O)c1=C1N=C(c2ccccc2)NO1,-1,-6
CCOC(=O)NS(=O)(=O)c1ccc(CCNC(=O)c2cc(C)on2)cc1,2,0
COc1ccc(C2CC(c3cccc(F)c3)=NN2C(=O)CN2CCC3(CC2)OCCO3)cc1 (centres undefined),7,17
Cc1ccc(CN(Cc2ccc(C(O)(c3cccc(F)c3)c3cccc(F)c3)o2)CC2CCCO2)o1 (centres undefined),5,1
CC(=O)N1Cc2ccccc2CC1C(=O)Nc1ccc(F)cc1C (centres undefined),0,3
CCOC(=O)N1CCN(c2c(N3CCC(N4CCCCC4)CC3)c(=O)c2=O)CC1,1,2
O=C(c1cnc(Nc2ccccc2)nc1)N1C[C@H]2C[C@H](O)[C@@H](O)C[C@H]2C1,17,6
Cc1ccc(CN(C(=O)[C@H](N)c2ccccc2)C2CC2)s1,-11,-16
CCOC(=O)c1nn(-c2ccc(C)cc2)c(=O)c2c(NC(=O)c3cccc4ccccc34)scc12,5,2
COc1ccc(C2c3cccn3-c3ccccc3N2C(=O)CN(C(=O)Nc2c(C)cccc2C)C(C)C)cc1 (centres undefined),-6,-1
CCONC(=O)c1cc(C)nc2c1cnn2Cc1cccs1,0,4

# In the list so far, two contain a tert-butyl group:
SMILES,NPYLR7 agonist,NPYLR7 agonist max-min
COCCCN(CC(=O)N(CCc1c[nH]c2ccccc12)Cc1ccccc1)S(=O)(=O)c1ccc(C(C)(C)C)cc1,35,33
CC(C)(C)NC(=O)N(Cc1ccc(OCc2nc(CO)cs2)cc1)C1CC1,-3,-2

# Four of these compounds in another layout.
CNC(=O)[C@@H]1C[C@H](N)CN1C(=O)c1cc2ccc(OC)cc2n1C
  NPYLR7 agonist = -7; NPYLR7 agonist max-min = -8

CN(C)C(=O)c1nn(Cc2ccccc2)c2c1CN(C(=O)CC1=CCCCC1)CC2
  NPYLR7 agonist = 19; NPYLR7 agonist max-min = 6

CC(=O)C(Sc1nn(C)c(=S)s1)C(=O)Nc1ccccc1 (centres undefined)
  NPYLR7 agonist = -6; NPYLR7 agonist max-min = -10

CC(=O)Nc1cccc(NC(=O)CSc2cn(CC(=O)N(C(C)C)C(C)C)c3ccccc23)c1
  NPYLR7 agonist = -3; NPYLR7 agonist max-min = -7

# Continuation.
SMILES,NPYLR7 agonist,NPYLR7 agonist max-min
Cc1ccccc1C(=O)N1CCC2(CC1)C(=O)N(CC(=O)N1CCOCC1)CN2c1ccccc1,17,20
COC(=O)[C@@H]1C[C@H](NC(=O)c2csc(CN(C)C)n2)CN1C,11,7
COc1ccc(NS(=O)(=O)c2cc(C=CC(=O)O)ccc2OC)cc1S(N)(=O)=O,-1,-4
CCC1CN(C(=O)CCc2c(C)n[nH]c2C)CCC(=O)N1Cc1ccccc1 (centres undefined),9,3
COCCN(CCc1nc(-c2cccc([N+](=O)[O-])c2)no1)CC(O)COC (centres undefined),15,17
N#Cc1cnc(N2CCC(NC(=O)C(F)(F)F)CC2)nc1N,-1,-4
O=C(NCc1ccccc1F)C(C1CCCC1)N1CCN(C(=O)c2ccccc2Cl)CC1 (centres undefined),-7,-8
COc1cccc(C(NC(=O)C2CCN(CCc3c[nH]c4ccccc34)CC2)c2ccccn2)c1 (centres undefined),15,-2
CCC(C)N(Cc1cccnc1)C(=O)c1cccc(NC(C)=O)c1 (centres undefined),-1,-4
N#CC(N)c1ccc(Br)cc1 (centres undefined),14,11
Cc1ccc(Cl)cc1N=Cc1nc(-c2cccc3ccccc23)oc1O,-2,-8
Cc1ccccc1NC(=O)c1cn(CC2CCCO2)cc2c(=O)n(-c3ccccc3)nc1-2 (centres undefined),12,9
Cc1nn(CC(=O)NCC#N)c(C)c1[N+](=O)[O-],1,-2
CCCCn1c(N)c(N(CC)C(=O)c2cnc(C)cn2)c(=O)[nH]c1=O,-1,38
COC(=O)C(CC(C)C)NC(=O)C1CCN(S(=O)(=O)c2ccc3c(c2)CCCC3)CC1 (centres undefined),-6,-10
COc1ccc(-c2cc(C(=O)O)n(-c3ccc(F)cc3)n2)c(OC)c1,17,24
CSCCNC(=O)c1c(C)noc1-c1ccco1,12,8
Cc1ccc(C(=O)CSc2nc(C)nc3c2oc2ccccc23)cc1,-6,-5
Cc1nc(CS(=O)(=O)c2ccc(S(=O)(=O)N3CCCCC3)cn2)cs1,10,7
Cc1ccc(C(=O)N(C)Cc2snnc2C)cc1NC(=O)C1CC1,19,6
O=C(c1cc(F)ccc1Cl)N1CCN(c2nccc(-c3cccc(C(F)(F)F)c3)n2)CC1,-5,-5
O=C(c1sc2cc(F)ccc2c1Cl)N(c1ccccc1)C1CCCCC1,4,-3
COc1ccc(S(=O)(=O)N2CCCC(C)C2)cc1N1CCN(S(=O)(=O)c2c(C)c(C)c(C)c(C)c2C)CC1 (centres undefined),24,14
CCOc1ccccc1NC(=O)Nc1ccc(Nc2cc(OC(C)C)nc(C)n2)cc1,9,5
NC(=O)c1c(SCc2ccccc2)sc2c(O)cc(=O)[nH]c12,10,8
# Following part
SMILES,NPYLR7 agonist,NPYLR7 agonist max-min
CC(C)C1CN(C(=O)Nc2cnn(CC(F)F)c2)CCS1 (centres undefined),-25,-25
COc1cccc(CN(C)Cc2csc(C(C)C)n2)c1O,3,0
O=C(NCc1nnnn1-c1ccc(F)c(F)c1)c1ccccc1S(=O)(=O)C(F)F,0,-1
C[C@@H]1C(=O)O[C@H]2CC34[C@H]5C[C@@H](C(C)(C)C)[C@]36[C@@H](OC(=O)[C@@H]6O)O[C@@]4(C(=O)O5)[C@]21O (some centres undefined),0,-2
COC(=O)NC(C)C(=O)NCc1cccnc1Oc1c(C)cccc1C (centres undefined),6,5
O=C(CSc1ccc(NC(=O)C2CC2)nn1)NC1CCCCC1,-3,-4
O=C(C=Cc1ccco1)OCc1nc2sc3c(c2c(=O)[nH]1)CCCC3,3,2
O=C(OC(C(=O)Nc1cc(Cl)cc(Cl)c1)c1ccccc1)C1=COCCO1 (centres undefined),-1,-3
Cc1ccccc1CC(C1CCN(C(=O)c2ccc3[nH]ccc3c2)CC1)N(C)C(=O)Cn1cccn1 (centres undefined),12,2
COc1cccc(CN2CC(C(=O)N3CCC(c4ccncc4)CC3)CCC2=O)c1 (centres undefined),17,8
Cn1c(=O)oc2cc(NC(=O)C3CCCc4ccccc43)ccc21 (centres undefined),-15,-19
CCCCc1ccc(S(=O)(=O)N2CCN(c3nccc(-c4cc(OC)c(OC)c(OC)c4)n3)CC2)cc1,11,1
CN(CCNC(=O)C1(C)CC1(Cl)Cl)C1CC1 (centres undefined),-1,1
CCc1ccc(C(=O)N2CCSC2c2ccccc2C(F)(F)F)cc1 (centres undefined),10,9
O=C(CNC(c1ccc(F)cc1)c1cccs1)Nc1ccc(I)cc1 (centres undefined),3,2
CCN1C(=O)SC(N(CC)c2ccccc2)C1=O (centres undefined),7,4
